KCNQ2 pot – enhances the rat KCNQ2 potassium channel | B-score at 10 µM | CHO-K1 KCNQ2, FluxOR thallium flux fluorescence; stronger effect = higher value | actives 0.54% (n = 310,000) | O88943;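 active means fluorescence ratio B-score at least 3 SD of library B-scores, with initial fluorescence B-score within 3 SD, cut at about 5.3 in these data; same plate scores as AID 2156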;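 further: B-score of peak minus minimum over baseline fluorescence ratio after K+ and Tl+ stimulus; positive B-score means potentiation of KCNQ2 with more thallium influx and brighter signal; only the inactives scoring about 0 or higher are listed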
Target sequence (O88943 whole entry, looked up): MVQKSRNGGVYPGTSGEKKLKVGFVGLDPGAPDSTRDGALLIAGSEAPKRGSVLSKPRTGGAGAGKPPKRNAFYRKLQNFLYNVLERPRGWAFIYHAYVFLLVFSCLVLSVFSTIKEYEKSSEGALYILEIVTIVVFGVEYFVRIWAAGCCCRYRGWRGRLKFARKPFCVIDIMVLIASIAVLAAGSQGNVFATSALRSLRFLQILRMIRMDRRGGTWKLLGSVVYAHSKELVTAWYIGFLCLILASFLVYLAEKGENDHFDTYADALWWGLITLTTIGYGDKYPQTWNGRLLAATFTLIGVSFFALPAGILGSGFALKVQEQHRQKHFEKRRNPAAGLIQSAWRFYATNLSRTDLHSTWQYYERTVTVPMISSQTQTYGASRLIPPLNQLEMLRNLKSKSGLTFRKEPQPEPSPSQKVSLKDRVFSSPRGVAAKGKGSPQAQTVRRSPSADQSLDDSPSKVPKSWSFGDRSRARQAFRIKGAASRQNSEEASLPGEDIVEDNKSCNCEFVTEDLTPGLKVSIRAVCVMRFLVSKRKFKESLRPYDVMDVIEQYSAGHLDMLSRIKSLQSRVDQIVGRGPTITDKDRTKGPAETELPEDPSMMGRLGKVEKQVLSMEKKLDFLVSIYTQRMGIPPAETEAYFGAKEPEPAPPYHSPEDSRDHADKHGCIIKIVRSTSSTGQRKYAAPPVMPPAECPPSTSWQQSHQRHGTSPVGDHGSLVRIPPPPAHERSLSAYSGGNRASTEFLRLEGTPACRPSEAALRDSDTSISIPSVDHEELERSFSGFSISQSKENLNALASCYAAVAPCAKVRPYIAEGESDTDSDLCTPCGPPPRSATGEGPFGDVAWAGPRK
KCNQ2 pot baseline – also measured in KCNQ2 pot; calls as there; B-score; compound at 10 µM; measured here: initial fluorescence intensity artifact check;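 brightness before thallium and not channel activity; 0 = typical well and far values either way flag optical interference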
Starred values were filed as active, the others as inactive. Not all compounds are listed. The share of hits here may be higher or lower than overall.

SMILES | KCNQ2 pot | KCNQ2 pot baseline
COc1ccc(N(C(=O)CNC(=O)c2ccco2)C(C(=O)NC2CCCCC2)c2cccnc2)cc1 (centres undefined) | 0.77 | -0.46
Cc1ccc(S(=O)(=O)NCC2CCC(C(=O)NCCCN3CCOCC3)CC2)cc1 (centres undefined) | 1.61 | -0.73
O=c1c(-c2ccc(Br)cc2)coc2c(CN3CCCCC3)c(O)ccc12 | 0.57 | -0.24
O=C(NC1CCCCCCC1)C1CCC(CNc2c(N3CCCC3)c(=O)c2=O)CC1 (centres undefined) | 0.05 | -0.53
Cc1ccc(CNC(=S)Nc2ccc(OC(F)F)cc2C)cc1 | 1.98 | -1.49
Cc1cc2[nH]c(=O)c(=O)[nH]c2cc1S(=O)(=O)Nc1cccc(Cl)c1C | 0.41 | 0.23
Cc1ccc(OCC(=O)Nc2ccc3c(c2)OCO3)c(C)c1 | 1.59 | -0.42
Cc1ccc(S(=O)(=O)NCC(c2cccnc2)N(C)C)cc1 (centres undefined) | 0.12 | 0.1
Cc1cccc(NC(=O)c2ccc(Cl)c(S(=O)(=O)N3CCCC3)c2)n1 | 1.74 | -0.32
Cc1nnc(NC(=O)CCSc2ccccc2)s1 | 0.01 | -2.32
COc1ccc(-c2cnc3c(c2)CCC3(C#N)C#N)cc1 | 0.92 | -2.06
OC(COc1ccc(F)cc1Cl)CN1CCC(Cc2ccccc2)CC1 (centres undefined) | 0.16 | 0.26
COc1ccc(C)c2sc(N(CCN(C)C)C(=O)/C=C/c3cccs3)nc12 | 0.01 | 0.34
CCn1cc(S(=O)(=O)CC(=O)Nc2cc(C)ccc2C)c2ccccc21 | 0.73 | -0.83
Cc1onc(-c2ccccc2)c1C(=O)N1CCCN(C(=O)c2c(-c3ccccc3)noc2C)CC1 | 0.48 | -0.01
CCCn1c(O)c(CN2CCCCC2)c(C)c(C#N)c1=O | 2.85 | -1.73
N#Cc1c(N)nc2c(c1N)CC(C(F)(F)F)O2 (centres undefined) | 0.48 | -1.05
Cc1ccc(C(=O)c2cn(-c3ccc(F)c(Cl)c3)nn2)cc1 | 0.92 | -0.31
CCCc1cc(=O)[nH]c(SCC(=O)c2ccc3c(c2)OCCO3)n1 | 0.18 | 1.06
O=C(N/N=C\c1ccc2c(c1)OCO2)c1cncc(Br)c1 | 0.21 | 1.13
COc1ccc(-n2c(SCC(=O)Nc3ccc(NC(C)=O)cc3)nc3c([nH]c4ccccc43)c2=O)cc1OC | 0.3 | -0.83
O=C1Nc2ccc(F)cc2C12Nc1ccccc1-c1nnc(SCc3ccccc3F)nc1O2 (centres undefined) | 0.17 | 0.37
Cc1cc(NC(=O)c2cc(C)on2)no1 | 0.28 | -0.44
CC(=O)c1ccc(N=Nc2c(C)[nH][nH]c2=O)cc1 | 2.48 | -0.89
CC[C@@]1(c2cccc(C)c2)C(=O)N(C(=O)OC)N1C(=O)OC | 1.48 | -0.22
COc1cccc(/C=C2\SC(=S)N(CC(=O)N(C)C3CCS(=O)(=O)C3)C2=O)c1 (centres undefined) | 0.73 | 0.15
Cc1cccc(/C(N)=N/OC(=O)c2ccc(F)cc2)c1 | 2.23 | 0.67
Cc1cc(C(F)(F)F)nc(SCC(=O)Nc2ccccc2)n1 | 0.13 | -1.45
C=CCn1c(COc2cccc(C)c2)nnc1SCC(=O)c1c[nH]c2c(CC)cccc12 | 0.27 | 1.79
COC(=O)C1C(=O)CC(C)(O)C(C(=O)OC)C1c1ccc2c(c1)OCO2 (centres undefined) | 0.99 | -1.32
COc1ccc(CCNC(=O)c2cccn2C)cc1 | 0.21 | -0.25
CC(=O)NC(Cc1ccccc1F)C(=O)NC1CCN(c2ncccc2[N+](=O)[O-])CC1 (centres undefined) | 0.01 | -0.2
COc1ccc(C(=O)C[N+]2(C)CCOCC2)cc1 | 0.03 | -0.2
Cc1cccc(-n2ccc(=O)c(C(=O)Nc3ccc(S(=O)(=O)Nc4nccs4)cc3)n2)c1 | 0.12 | 0.99
COc1ccc(C(C(=O)NCC2CCCO2)N(C(=O)Cn2nnc3ccccc32)c2ccc(NC(C)=O)cc2)cc1 (centres undefined) | 0.48 | 0.44
NS(=O)(=O)c1ccc(CCNC(=O)CSc2nc3ccccc3c(=O)n2CCN2CCOCC2)cc1 | 0.57 | 2.04
Cc1cc(C)nc(NCC(O)CNc2ccccc2Cl)n1 (centres undefined) | 1.8 | 0.29
CCC1CCc2sc(C(=O)NNC(=O)c3ccncc3)cc2C1 (centres undefined) | 0.16 | -0.66
CC(C)(C)n1nc2c(c1NC(=O)COc1ccccc1F)CS(=O)(=O)C2 | 0.91 | -0.06
O=C(Nc1ncc(Cc2ccc(SC(F)F)cc2)s1)c1ccc(OC(F)F)cc1 | 0.24 | -1.42
O=S(=O)(Nc1nnc(C2CC2)s1)c1ccccc1 | 1.1 | -0.57
CC(C)(C)n1nc2c(c1NC(=O)c1ccc(Br)o1)CS(=O)C2 (centres undefined) | 0.12 | -0.07
Cc1cc(-c2nnc(SCC(=O)Nc3c(C)cccc3C)n2N)n[nH]1 | 1.07 | 0.44
CCOc1cc(CN2CCOCC2)cc(C(C)=O)c1 | 0.2 | 0.59
Cc1ccc(C2CC(=O)NC(SCC(N)=O)=C2C#N)s1 (centres undefined) | 1.61 | 1.04
Cc1c(C(=O)OCC(=O)Nc2ccc(C(N)=O)cc2)cccc1[N+](=O)[O-] | 1.19 | 0.27
Cn1c(SCC(=O)c2ccccc2)nnc1-c1cccc(N)c1 | 0.73 | 2.05
CCOc1ccccc1NC(=O)N1CCC(NC(=O)C2CCCCC2)CC1 | 0.89 | -0.75
Cc1ccc(-n2c(N)c(-c3nc4ccccc4n3C)sc2=S)cc1 | 0.81 | 0.1
CCC1=NN(C(=O)c2cccnc2)C(O)(C(F)(F)F)C1 (centres undefined) | 0.98 | -0.98
COc1ccc(C2C/C(=N\O)C(C)(C)O2)cc1 (centres undefined) | 2.32 | -1.38
O=C(NC1CCOc2ccccc21)c1ccccn1 (centres undefined) | 0.05 | 1.88
CCOc1ccc2c(O)csc2c1 | 0.02 | -0.02
Cc1cc2c(cc1C)-c1nnnn1C(C)(C)C2 | 0.91 | -0.13
O=C(CSc1nnc(-c2ccc(C(F)(F)F)cn2)s1)c1ccc(Cl)cc1 | 1.29 | 0.49
Cc1c(CC(=O)NCCC(=O)O)c(=O)oc2cc3occ(-c4ccccc4)c3cc12 | 0.44 | -1.67
C[n+]1cccc(/C=N/NC(=O)CC23CC4CC(CC(C4)C2)C3)c1 | 0.9 | -1.28
CCN1C(=O)/C(=C\N(C)C)NC1=S | 0.07 | 1.41
c1coc(CNc2ncnc3[nH]ncc23)c1 | 1.49 | -1.86
COc1ccc(OC)c(N2C(=O)CC(Cc3ccc(C)cc3)C2=O)c1 (centres undefined) | 1.12 | -0.24

Carrying on.
SMILES | KCNQ2 pot | KCNQ2 pot baseline
COc1ccccc1NC(=O)CSc1nnc(NC(=O)C2CC2)s1 | 1.45 | 0.85
Cc1ccc(-c2cc(N)n[nH]2)cc1 | 0.53 | -0.26
Cc1[nH]nc(-c2ccc(O)c(C)c2O)c1Oc1ccccc1 | 0.4 | 0.85
O=C(C(=O)N1CCN(C(=O)c2ccco2)CC1)c1c[nH]c2ccccc12 | 0.42 | 0.49
FC(F)(F)c1cc(Cl)c2nc(-c3ccccc3)cn2c1 | 1.51 | -0.7
COc1ccc(C(=O)OCC(=O)N(C)C2CCS(=O)(=O)C2)cc1S(=O)(=O)N1CCCc2ccccc21 (centres undefined) | 1.44 | 0.3
O=c1[nH]c2ccc(S(=O)(=O)N3CCCC3)cc2[nH]1 | 0.5 | -0.66
Cc1ccc(S(=O)(=O)n2nc(C)c(S(=O)(=O)N3CCOCC3)c2C)cc1 | 2.47 | 1.07
Cc1cc(N2CCCC2)nc2ccccc12 | 0.01 | 0.98
CCOC(=O)c1c(NC(=O)COC(=O)c2ccc(Cl)nc2)sc(C(=O)N(C)C)c1C | 0.19 | -0.36
O=C(c1ccc2ccccc2c1)C1CCCN(C(=O)CN2C(=O)CSC2=O)C1 (centres undefined) | 0.24 | -4.22
CCC(c1nnc(SCC(=O)N2CC3(C)CC2CC(C)(C)C3)o1)N(C)C (centres undefined) | 0.26 | -0.13
COc1cc(NC(=O)c2ccc(C)c([N+](=O)[O-])c2)ccc1NC(=O)c1ccco1 | 0.02 | -1.58
Cc1c(NC(=O)C(C)OC(=O)c2ccc(Br)o2)c(=O)n(-c2ccccc2)n1C (centres undefined) | 0.38 | 0.13
OCCCCCNc1ncnc2ccccc12 | 0.29 | 0.81
COc1ccc(S(=O)(=O)Cc2ccc(C(=O)NCc3ccco3)o2)cc1 | 0.99 | 0.36
COc1ccc(-c2cc(-c3ccccc3)n[nH]2)c(O)c1 | 0.11 | 0.08
Cc1ccc(C)c(NC(=O)C2CCCN(S(=O)(=O)c3c(C)noc3/C=C/N(C)C)C2)c1 (centres undefined) | 1.17 | -0.02
COc1ccccc1CNC(=O)C1CCCN(c2cnccn2)C1 (centres undefined) | 1.02 | -0.6
CCCCN1C(=S)SC(C)(C)C1/[N+]([O-])=C/c1ccc(S(=O)(=O)NC)cc1 (centres undefined) | 1.18 | -1.26
CCC(=O)N1CCN(c2ccc(NC(=O)c3ccc(C#N)cc3F)cc2Cl)CC1 | 2.19 | 1.61
CC(=O)Nc1cccc(/C(C)=N/NS(=O)(=O)c2ccccc2)c1 | 0.47 | -0.91
Cc1ccc(N/C=C/C(=O)c2ccco2)c(O)c1 | 3.03 | 1.19
CCOCCCN(C(=O)c1ccco1)C(C(=O)NC1CCCC1)c1ccc(OC)cc1 (centres undefined) | 0.49 | -0.86
Cc1cccc(-n2c(=O)[nH]c3c(C(N)=O)nc(CC(C)C)nc32)c1 | 1.47 | -0.19
CC(Sc1nc2ccccc2c(=O)n1CCc1ccc(S(N)(=O)=O)cc1)C(=O)NC(N)=O (centres undefined) | 1.14 | 0.03
COc1ccccc1NC(=O)c1cc2c(CO)cnc(C)c2oc1=Nc1ccc(OC)c(OC)c1 | 0.18 | -0.18
Cc1cc(N/N=C/c2ccc(O)cc2O)nc(-c2ccccc2O)n1 | 2.58 | -1.43
Cc1ccccc1OCc1occc1C(=O)Nc1cccc(-n2cnnn2)c1 | 1.83 | -1.03
Cn1c(=O)n(C)c2cc(NC(=O)COc3ccc(F)cc3)ccc21 | 2 | -1.07
Cc1nc(N2CCN(C(=O)c3cnccn3)CC2)c2c3c(sc2n1)CC(C(C)(C)C)CC3 (centres undefined) | 0.46 | -3.48
O=S(=O)(c1ccc2c(c1)OCCO2)N1CCC(n2nnc3cc(C(F)(F)F)ccc32)CC1 | 0.3 | -0.54
Cc1cc(C(=O)Cn2nnc(-c3ccc(Cl)cc3)n2)c(C)n1CC1CCCO1 (centres undefined) | 0.03 | 0.08
O=C(Nc1nc2ccccc2[nH]1)C1CCCO1 (centres undefined) | 1.71 | -1.12
COc1ccc(NC(=O)CSc2nc3ccncc3[nH]2)c(OC)c1 | 0.41 | -0.2
CCn1cc(C(=O)N(C)Cc2ccc(OC(F)F)cc2)c(=O)c2ccc(C)nc21 | 0.62 | -0.31
O=C(NC1CCCC1)C(c1ccc(F)cc1)N(C(=O)c1csnn1)C1CCCC1 (centres undefined) | 1.02 | 0.14
Clc1ccccc1-c1nc(-c2cccnc2)no1 | 0.04 | 0.25
COc1ccc(/C=N/Nc2ccc([N+](=O)[O-])cc2)cc1Cn1cc([N+](=O)[O-])cn1 | 0.52 | 1.66
CCOC(=O)N1CCC(NC(=O)CS(=O)Cc2nc(-c3ccc(C)cc3)oc2C)CC1 (centres undefined) | 1.36 | 0.56

Whole records as entered above. Values in the order: KCNQ2 pot	KCNQ2 pot baseline
Record of Cc1cccc(-n2c(=O)[nH]c3c(C(N)=O)nc(CC(C)C)nc32)c1 = 1.47	-0.19
Record of Cc1cc(C(=O)Cn2nnc(-c3ccc(Cl)cc3)n2)c(C)n1CC1CCCO1 (centres undefined) = 0.03	0.08
Record of Clc1ccccc1-c1nc(-c2cccnc2)no1 = 0.04	0.25
Record of CCOC(=O)N1CCC(NC(=O)CS(=O)Cc2nc(-c3ccc(C)cc3)oc2C)CC1 (centres undefined) = 1.36	0.56
Record of CCC(=O)N1CCN(c2ccc(NC(=O)c3ccc(C#N)cc3F)cc2Cl)CC1 = 2.19	1.61

(continued)
SMILES | KCNQ2 pot | KCNQ2 pot baseline
O=C1NC(=S)SC1=C1CCCCCC1 | 23.1* | 0.13*
CCOCCCNC(=O)CCc1ccc(S(=O)(=O)Nc2ccc(C)cc2)cc1 | 0.51 | 1.24
O=C(CSc1nc2ccccc2o1)Nc1ccccc1N1CCOCC1 | 0.43 | -1.19
COc1cc(NC(=O)CCN2CC(C)OC(C)C2)cc(OC)c1 (centres undefined) | 0.74 | 2.05
CCc1nc(SCC(=O)Nc2ccccc2)c2c(=O)n(C)c(=O)n(C)c2n1 | 0.55 | -0.08
Cc1ccc(OCc2ccc(C(=O)N3CCOCC3)cc2)cc1C | 0.38 | -1.66
CCN(CC(=O)Nc1ccc(OC)cc1)C(=O)c1cc2c(s1)CCCCC2 | 0.85 | 2.59

Grouped by structure: the entries above with bromine.
SMILES | KCNQ2 pot | KCNQ2 pot baseline
O=c1c(-c2ccc(Br)cc2)coc2c(CN3CCCCC3)c(O)ccc12 | 0.57 | -0.24
O=C(N/N=C\c1ccc2c(c1)OCO2)c1cncc(Br)c1 | 0.21 | 1.13
CC(C)(C)n1nc2c(c1NC(=O)c1ccc(Br)o1)CS(=O)C2 (centres undefined) | 0.12 | -0.07
Cc1c(NC(=O)C(C)OC(=O)c2ccc(Br)o2)c(=O)n(-c2ccccc2)n1C (centres undefined) | 0.38 | 0.13

Screening data (PubChem)
